Sfp PPTase inh: inhibitors of Bacillus subtilis Sfp phosphopantetheinyl transferase. actives 3.5% (n = 310,000). AID 1490. Biochemical Sfp PPTase activity, qHTS. Potency, µM, for inactives: max response, negative = inhibition, most hits filed as inhibitors. Q9F4F7; active means well fitted inhibition curve with a large enough effect; inconclusive means small, poorly fitted or top-dose-only effect, or another doubt; inactive means no such curve, though single readings can be large or run the other way;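 further: the enzyme is Sfp with the accession as filed and its product quenches rhodamine fluorescence; potency means the concentration at half of the fitted maximal effect; 0% = enzyme reaction without inhibitor and -100% = no enzyme wells; top concentration of the series not given in the record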
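Fluorescence-quenching assay: 15 nM Sfp-PPTase preincubated 15 min at room temperature with compound, then 5 uM rhodamine-CoA and 12.5 uM BHQ-2-labelled YbbR peptide added. Fluorescence (ex 525/em 598 nm) read at start and after 30 min; difference gives rate.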
Menin MLL FP FL: menin-MLL binding inhibition, fluorescein peptide; Fluorescence polarization, fluorescein-MLL peptide displacement from menin; FP activity change, % at 61.4 µM; 290,000 tested, under 10 active; inconclusive = falling polarisation curve, or a change in total fluorescence; inactive = total fluorescence flat and polarisation flat or rising; no compound was filed as active; the % refers to the polarisation; negative = inhibition;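 further: % of control where 0% means no effect; inhibitors lower the polarisation; unlabelled MLL peptide was the positive control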
gsp antag: gsp mutant antagonism. gsp-mutant cells, cAMP HTRF, 30 min; control for the full effect not named in the record. Potency, µM (series often up to 76.9 µM), for the others: top-dose activity change, negative = inhibition, most hits filed as inhibitors. actives 0.4% (n = 340,000); active = falling curve of any shape with a large fitted effect; inconclusive = falling curve, mostly with a smaller effect; inactive = flat or rising curve; cell line not stated here;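 further: intracellular cAMP measured with PDE inhibitor Ro 20-1724 present during compound exposure; potency means the concentration at half of the fitted maximal effect; on the % scale 0 is the no-effect control and ±100 the full control effect; nearly all actives have a fitted effect of over 65% in size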
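Measurement of cellular cAMP by homogeneous time-resolved fluorescence following a 30 min compound exposure at 37C. The PDE inhibitor […] was present throughout; the assay buffer was DPBS with 0.05% BSA and 0.005% Tween 20.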
gsp agonist: agonists of gsp mutant (McCune-Albright syndrome). Potency, µM (doses to about 76.9 µM), for the others: top-dose activation (cAMP increase), hits mostly activators. actives 0.13% (n = 340,000). gsp mutant cells, cAMP HTRF, 30 min; control for the full effect not named in the record; active = well fitted activation curve with a large enough effect; inconclusive = small, poorly fitted or top-dose-only effect, or another doubt; inactive = no such curve, though single readings can be large or run the other way; cell line not stated here;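 further: phosphodiesterase inhibitor Ro 20-1724 added with compounds to block cAMP breakdown; potency means the concentration at half of the fitted maximal effect; nearly all actives have a fitted effect of over 60% in size; about a fifth of the inactives were tested at one dose only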
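Cells stably selected in G418 were plated at 2000/well, grown 16-24 hr, then given compounds in DMSO with the PDE inhibitor […] (300 uM solution added) for 30 min at 37C; cAMP was read by HTRF.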
D2 ag: activates the human D2 dopamine receptor | DiscoveRx PathHunter D2 beta-arrestin, luminescence, 90 min; 100% = 57 uM dopamine signal | P14416 | activation, % (test concentration not listed) | actives 0.084% (n = 360,000); in the data active = activation above about 40%; inconclusive = about 15% to 40%; inactive = below about 15%; further: compound concentration not given in the record; the text of the record calls up to 30% inactive
Target sequence (P14416 whole entry, looked up): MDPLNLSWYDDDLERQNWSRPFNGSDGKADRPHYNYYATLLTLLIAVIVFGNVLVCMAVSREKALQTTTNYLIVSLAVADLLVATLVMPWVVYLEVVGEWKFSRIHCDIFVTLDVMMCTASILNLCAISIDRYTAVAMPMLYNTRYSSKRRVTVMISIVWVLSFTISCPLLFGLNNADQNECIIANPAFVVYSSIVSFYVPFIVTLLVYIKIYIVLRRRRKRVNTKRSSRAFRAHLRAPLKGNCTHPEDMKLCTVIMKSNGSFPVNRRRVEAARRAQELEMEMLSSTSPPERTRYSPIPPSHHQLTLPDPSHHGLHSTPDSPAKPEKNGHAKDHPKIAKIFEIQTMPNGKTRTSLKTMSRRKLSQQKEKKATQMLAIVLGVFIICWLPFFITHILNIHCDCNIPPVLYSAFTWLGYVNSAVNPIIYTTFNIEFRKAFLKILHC
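DiscoveRx PathHunter D2 beta-arrestin cells (2,100/well) attached overnight, then compound-stimulated 90 min at 37 C in HBSS/10 mM HEPES/0.1% Tween-20 buffer; beta-galactosidase complementation read by luminescence after 1 h at ambient temperature. Dopamine 57 uM final (EC100) as control.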
PINK1 modulator: changes PINK1 expression; PINK1 immunofluorescence, high-content cytometry, 24 h; Potency, µM (top dose mostly 76.6 µM), for inactives: top-dose activation (PINK1 increase), hits mostly activators; actives 0.2% (n = 410,000); AID 624263; active = well fitted activation curve with a large enough effect; inconclusive = small, poorly fitted or top-dose-only effect; inactive = flat fitted curve, though single readings scatter; cell line not stated here;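 further: potency means the concentration at half of the fitted maximal effect; % of control where 0% means no effect; nearly all actives have a fitted effect of over 65% in size; a mitochondrial uncoupler was the plate control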
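PINK1 protein, normally rapidly degraded, was detected by immunofluorescence after 24 hour compound treatment of a stable cell line. Titration data (5 concentrations) came from laser-scanning cytometry, with CCCP-treated wells as controls.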
ClpP mod: qHTS Assay for Activators of ClpP. actives 1.9% (n = 340,000). AID 651965, 2013. ATP-dependent Clp protease proteolytic subunit (Bacillus subtilis (strain 168)), P80244. Potency, µM (titrated, usually from 57.5 µM), inactives show at the highest dose activity change, negative = active. purified B. subtilis ClpP, FRET peptide cleavage, 20 min; active = well fitted falling curve with a large enough effect; inconclusive = small, poorly fitted or top-dose-only effect; inactive = no such curve, though single readings can be large or run the other way; further: potency means the concentration at half of the fitted maximal effect; the source files actives as falling curves though it sought activators and does not explain the sign; nearly all actives have a fitted effect of over 65% in size; many hits overshoot -100%
Target sequence (P80244 whole entry, looked up): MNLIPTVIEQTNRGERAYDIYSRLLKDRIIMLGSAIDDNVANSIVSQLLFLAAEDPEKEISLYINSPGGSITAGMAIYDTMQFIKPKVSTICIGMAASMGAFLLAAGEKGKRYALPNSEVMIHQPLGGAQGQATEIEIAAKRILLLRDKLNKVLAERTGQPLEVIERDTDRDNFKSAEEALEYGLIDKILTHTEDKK
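ClpP 10 microg/mL final, pH 8 Tris/KCl buffer with BSA, glycerol, Tween-20; compound pinned in; FRET-FV substrate; RT 20 min; Ex320/Em430; ΔFRET vs ADEP 5.8 microM, DMSO, no enzyme.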
The depositor's hits bear a star; ? = inconclusive; . = no result given; & = joins results of further samples; [ ] = another dose, or the depositor's remark. Random draw from the library; 5.1% or so of the library scored in one or more.

SMILES | Sfp PPTase inh | Menin MLL FP FL | gsp antag | gsp agonist | D2 ag | PINK1 modulator | ClpP mod
COc1ccccc1-c1nn(Cc2ccccc2)cc1C(=O)N1CCN(c2ncccn2)CC1 | . | . | -14% | -2% | -2.6 | 9.9% | -9.1%
c1ccc2nc3ccccc3nc2c1 | 16% | 0.7 | -2% | . | -2.5 | 1.4% | -5.0%
Cc1cc2c(cc1S(=O)(=O)Nc1cccc(F)c1)n(C)c(=O)c(=O)n2C | 8% | 1.9 | -12% | 10% | -1.3 | -1.6% | 0.2%
C[C@@H](NC(=O)c1nc[nH]c1C(=O)NCc1ccccc1)c1ccccc1 | . | . | 10% | . | 1.4 | 4.7% | 0.4%
CCOC(=O)c1[nH]c(C)c(C(=O)Nc2ccc(Cl)cc2)c1C | 21% | 37[activator] | 3% | -89%[inhibitor] | 3.2 | 2.5% | 2.2%
Cc1ccc(O)c(C(CC(=O)NCc2ccco2)c2ccccc2)c1 (stereo not drawn) | 10% | 0.1 | -19% | -26% | -4.2 | 1.8% | -1.1%
O=C(CCCOc1ccc(Cl)cc1Cl)N/N=C/c1ccco1 | -11% | 3.3 | 8% | 4%[15.4 µM] | -2.6 | 2.5% | .
COc1ccccc1NC(=O)COC(=O)C12CC3CC(CC(Br)(C3)C1)C2 | . | . | -4% | ? | 1.9 | 10% | -0.2%
Cc1cccc(C)c1NC(=O)CN(C)C(=O)c1cc(S(=O)(=O)N2CCOCC2)ccc1N1CCCC1 | . | . | -1% | -61%[inhibitor] | -4.5 | 0.6% | 0.8%
COc1cc(-c2nc(CN3CCN(C(=O)c4ccco4)CC3)c(C)o2)ccc1F | 8% | . | -9% | -2% | 6.1 | 0.8% | -3.4%
Cc1ccc(Cn2nnnc2CN2CCC(O)(c3cccnc3)CC2)cc1 | 9% | -2.1 | 4% | 6% | -9.5 | 2.4% | 0.8%
COc1cc(C(c2c(C)n(C)n(-c3ccccc3)c2=O)c2c(C)n(C)n(-c3ccccc3)c2=O)cc(Br)c1O | -1% | 3.7 | 5% | 0% | -3.8 | -0.2% | -1.8%
COc1ccc(CCNC(=O)CSc2nnnn2-c2ccccc2)cc1 | 12% | -3.0 | -11% | 3% | -3.8 | -2.3% | -0.4%
O=C(N/N=C/c1cccc(Br)c1)c1ccc(Br)cc1 | 8% | 1.7 | -3% | 12% | -0.9 | 3.6% | .
Nc1cc(=O)nc(SCc2ccccc2)n1Cc1ccco1 | 9% | 0.9 | -5% | -1% | -5.1 | -0.8% | 0.6%

Brought forward from above: 5 compounds, followed by the next part.
SMILES | Sfp PPTase inh | Menin MLL FP FL | gsp antag | gsp agonist | D2 ag | PINK1 modulator | ClpP mod
Cc1ccc(Cn2nnnc2CN2CCC(O)(c3cccnc3)CC2)cc1 | 9% | -2.1 | 4% | 6% | -9.5 | 2.4% | 0.8%
COc1cc(C(c2c(C)n(C)n(-c3ccccc3)c2=O)c2c(C)n(C)n(-c3ccccc3)c2=O)cc(Br)c1O | -1% | 3.7 | 5% | 0% | -3.8 | -0.2% | -1.8%
COc1ccc(CCNC(=O)CSc2nnnn2-c2ccccc2)cc1 | 12% | -3.0 | -11% | 3% | -3.8 | -2.3% | -0.4%
O=C(N/N=C/c1cccc(Br)c1)c1ccc(Br)cc1 | 8% | 1.7 | -3% | 12% | -0.9 | 3.6% | .
Nc1cc(=O)nc(SCc2ccccc2)n1Cc1ccco1 | 9% | 0.9 | -5% | -1% | -5.1 | -0.8% | 0.6%
COc1nc(NCCO)nc(Nc2ccc([N+](=O)[O-])cc2)n1 | -5% | 6.7 | 2% | 13% | 0.1 | 1.4% | -9.0%
COc1cccc(Cn2c(NCc3ccco3)nc3c2c(=O)n(C)c(=O)n3C)c1 | -3% | 2.1 | -14% | -42%[inhibitor] | -1.7 | -1.9% | 0.4%
O=C(/C=C/c1ccccc1)NC(=S)Nc1ccc(N2CCOCC2)c(Cl)c1 | 20% | 2.0 | 6% | -18% | 2.6 | ? | -6.4%
Cc1cccc(C)c1NS(=O)(=O)c1ccc(F)cc1 | 12% | -0.6 | 6% | -20% | -2.3 | 0.0% | ?
COC1OC(COCc2ccccc2)C(N)C(OCc2ccccc2)C1OCc1ccccc1 (stereo not drawn) | . | . | 3% | 24% | 1.9 | 12% | .
COc1cccc(-c2nc(CC(=O)O)cs2)c1OC | 4% | 0.1 | -10% | -7% | -0.2 | -1.6% | 13µM*
CC(C)c1ccc(NCCC(=O)c2ccc(Br)cc2)cc1 | -3% | -1.3 | 14% | 0% | -4.0 | 0.2% | -0.9%
CC(C(=O)NC(C)(C)C)N(Cc1cccs1)C(=O)CCN1CCc2ccccc21 (stereo not drawn) | 3% | 2.0 | -18% | -4%[15.4 µM] | -4.0 | -0.7% | .
COC(=O)[C@@]1(Cc2ccc(F)cc2)[C@H]2c3cc(C(=O)N(C)C)n(Cc4ccccn4)c3C[C@H]2CN1C(=O)c1ccccc1 | -28%&11% | 3.3&-0.8 | -12% | . | -3.6 | 1.6% | 0.5%
Cc1ccc(C(=O)N2CCN(S(=O)(=O)c3ccccc3[N+](=O)[O-])C2)cc1 | 9% | -0.8 | 2% | ? | -1.7 | 0.9% | 0.7%
CCSc1ccc(-c2ccc(C)cc2)nn1 | 4% | 1.2 | 5% | -10%[15.4 µM] | -0.3 | -0.2% | .
CSc1ncc(C(=O)Nc2ccc(Cl)cc2)c(C)n1 | 12% | 14 | 5% | 7% | -3.6 | 0.8% | .
CCC[C@@H]1C[C@@H](C(=O)NC(C(C)Cl)[C@H]2O[C@H](SC)[C@H](O)[C@@H](O)[C@H]2O)N(C)C1 (stereo partly drawn) | 16%&21% | -7.0&0.2 | 3% | . | -5.2 | 0.4% | 0.8%
CCCNC(=O)c1ccccc1NC(=O)CN(c1ccccc1OCC)S(C)(=O)=O | 3% | 4.1 | -6% | -37%[inhibitor] | -4.5 | 2.2% | -1.1%
CN(CC(=O)Nc1ccc(Cl)c(C(F)(F)F)c1)C(=O)Cc1cccs1 | 5% | . | -2% | 10% | -3.5 | -0.5% | -0.6%
CCOc1ccc(NC(=O)CNC(=O)c2ccc(OC)c(OC)c2)cc1 | 13% | 1.5 | -2% | 7% | 0.4 | -0.6% | -1.8%
S=c1[nH]ccn1-c1cccc(Cl)c1 | -2% | 4.8 | 0% | 6% | 0.8 | -0.1% | -19%
COc1ccc(CN2CCC(n3nccc3NC(=O)C3CC3)CC2)c(Cl)c1OC | 14% | . | -1% | -43%[inhibitor] | 0.5 | 0.6% | -3.6%
O=C(C[C@@H]1C[C@H]2c3cc(NC(=O)C4CCC4)ccc3O[C@H]2[C@@H](CO)O1)NCc1ccc(-c2ccccc2)cc1 | . | . | . | 32µM* | -1.4 | -0.2% | 0.4%
CCO/C=C1\C(=O)N(CC)c2ccccc21 | -14% | -0.9 | -9% | 2% | -1.3 | -1.8% | -1.2%
Cc1cc(C)cc(C(=O)NC(CC(N)=O)c2ccc(NC3CCCCCCC3)c([N+](=O)[O-])c2)c1 (stereo not drawn) | 6% | -2.1 | -5% | . | -1.7 | 4.1% | 1.8%
COc1ccc(NC(=O)N(C)[C@H]2C[C@H]3c4[nH]c5ccccc5c4CCN3C[C@H]2[C@H](C)O)cc1 | . | . | . | -4% | -2.0 | -0.3% | -16%
Cc1ccc(C)c(S(=O)(=O)N2CCN(c3nc(CN4CCOCC4)nc4sc(C)c(C)c34)CC2)c1 | . | . | ? | -15% | -1.0 | -1.1% | -2.4%
CCC(C)[C@H]1CNC(=O)C(=O)N1CCCc1cc(OC)c(OC)c(OC)c1 (stereo partly drawn) | 8% | 1.1 | 5% | 16% | 0.4 | 0.4% | -0.3%
O=C(CSc1nnnn1C1CCCCC1)NCCc1ccccc1 | 6% | 5.0 | 1% | 5% | -1.4 | . | 0.0%
CCc1ccccc1OCC(=O)Nc1ccc2c(c1)OCCO2 | 2% | -1.1 | 1% | -1% | 1.2 | -0.6% | .
O=S(=O)(N/N=C/c1ccc(F)cc1)c1ccccc1 | 14% | -2.4 | 8% | 3%[15.4 µM] | -3.2 | -1.2% | .
Cn1c2c(c(=O)[nH]c1=O)C(NC(=O)c1ccco1)(C(F)(F)F)C(=O)N2 (stereo not drawn) | 13% | 3.0 | 14% | 0% | -2.3 | -1.0% | -0.7%
CCN(CC)S(=O)(=O)c1cccc(-c2nnc(SCC(=O)NCCC3=CCCCC3)n2N)c1 | 1% | -0.8 | -8% | -8% | -1.4 | -1.4% | -1.1%
CC(=O)n1nc(-c2ccco2)nc1SCc1ccccc1 | -15% | 2.5 | 7% | -30% | -0.9 | 2.2% | -0.9%

Gathered by group: those above with a thiophene ring, fused or not (3)
SMILES | Sfp PPTase inh | Menin MLL FP FL | gsp antag | gsp agonist | D2 ag | PINK1 modulator | ClpP mod
CC(C(=O)NC(C)(C)C)N(Cc1cccs1)C(=O)CCN1CCc2ccccc21 (stereo not drawn) | 3% | 2.0 | -18% | -4%[15.4 µM] | -4.0 | -0.7% | .
CN(CC(=O)Nc1ccc(Cl)c(C(F)(F)F)c1)C(=O)Cc1cccs1 | 5% | . | -2% | 10% | -3.5 | -0.5% | -0.6%
Cc1ccc(C)c(S(=O)(=O)N2CCN(c3nc(CN4CCOCC4)nc4sc(C)c(C)c34)CC2)c1 | . | . | ? | -15% | -1.0 | -1.1% | -2.4%

Remaining list, next part.
SMILES | Sfp PPTase inh | Menin MLL FP FL | gsp antag | gsp agonist | D2 ag | PINK1 modulator | ClpP mod
CCOC(=O)CSc1nnc(C)c(=O)[nH]1 | 5% | 0.8 | 8% | -24% | -3.5 | 1.4% | -2.1%
CCOc1ccc2nc(SCC(=O)NC3CCCCC3)[nH]c2c1 | 4% | -0.3 | 7% | -32%[inhibitor] | 4.1 | 9.5% | .
CCN(CCn1cccn1)C(=O)c1cc(COc2ccccc2SC)on1 | 10% | . | -15% | ? | -2.1 | 0.3% | -1.4%
CC(Sc1nccn1C)C(=O)c1c(N)n(C)c(=O)n(C)c1=O (stereo not drawn) | . | . | -1% | 2% | -3.1 | 4.4% | -2.4%
